Mtb MenB inh: M. tuberculosis MenB inhibitors, primary screen, biochemical, absorbance; AID 540299, 2011; MenB enzyme assay, absorbance read-out; some hits fall short of the stated cut; actives 0.43% (n = 100,000); 1,4-dihydroxy-2-naphthoyl-CoA synthase (Mycobacterium tuberculosis (strain ATCC 25618 / …; inhibition, %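 (about 12 µg/mL by stock and volumes)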;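 active means mean of two replicates above 30%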;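 further: 0% = no compound and 100% = wells with inactive enzyme; the first replicate is given; strong numbers were not always called active; inactives centre near -10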
Target sequence (P9WNP5 whole entry, looked up): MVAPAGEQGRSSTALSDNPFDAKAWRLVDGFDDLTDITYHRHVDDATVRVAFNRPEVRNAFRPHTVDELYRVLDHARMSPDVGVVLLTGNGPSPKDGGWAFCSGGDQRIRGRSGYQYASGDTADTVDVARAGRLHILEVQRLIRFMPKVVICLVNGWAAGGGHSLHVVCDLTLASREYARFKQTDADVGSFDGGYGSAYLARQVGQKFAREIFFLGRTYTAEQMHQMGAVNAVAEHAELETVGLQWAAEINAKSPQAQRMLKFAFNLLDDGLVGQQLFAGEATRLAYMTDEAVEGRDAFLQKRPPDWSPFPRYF
Polio RdRp inh: poliovirus RdRp elongation inhibitors, primary screen, biochemical, fluorescence polarization, total intensity; actives 0.66% (n = 150,000); Genome polyprotein (Poliovirus type 1 (strain Mahoney)), P03300; % elongation, % (compound at 16.7 µg/mL); poliovirus polymerase elongation; active compounds read low; in the data active means % elongation below about 90%; further: some results filed as inactive read as strong as hits
Mtb MbtI inh: MbtI salicylate synthase inhibitors, primary screen, biochemical, fluorescence intensity; purified MbtI enzyme, fluorescence intensity read-out; AID 493033, 2011; inhibition, %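 (about 17 µg/mL by stock and volumes)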; actives 0.89% (n = 100,000);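 active means above 50% in both replicates, above 80% if mildly self-fluorescent; inactive means the rest, strongly fluorescent compounds included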;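 further: 0% = mean of negative and 100% = mean of positive controls; one replicate is shown; some compounds called inactive have numbers as strong as hits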
Target sequence (P9WFX0 whole entry, looked up): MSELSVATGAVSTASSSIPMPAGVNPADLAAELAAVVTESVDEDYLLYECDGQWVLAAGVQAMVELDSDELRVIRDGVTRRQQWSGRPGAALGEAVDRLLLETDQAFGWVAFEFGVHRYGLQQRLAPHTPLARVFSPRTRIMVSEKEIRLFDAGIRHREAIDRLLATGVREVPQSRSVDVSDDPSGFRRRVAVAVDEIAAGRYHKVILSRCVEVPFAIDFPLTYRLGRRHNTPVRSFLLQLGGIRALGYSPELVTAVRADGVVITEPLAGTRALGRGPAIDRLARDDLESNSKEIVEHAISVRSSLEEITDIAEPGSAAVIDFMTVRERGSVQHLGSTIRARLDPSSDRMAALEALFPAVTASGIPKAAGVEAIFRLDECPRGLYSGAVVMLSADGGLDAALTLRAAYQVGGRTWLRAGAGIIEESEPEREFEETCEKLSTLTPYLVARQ
Polio RdRp inh intensity: also measured in Polio RdRp inh; calls as there; % elongation; measured here: total intensity read-out; formula for this scale not given here;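 total fluorescence in place of polarization; lower means less elongation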
* marks the source's active call; other numbers are inactive results; x = not tested or not shown; & = joins results of further samples.

SMILES	Mtb MenB inh	Polio RdRp inh	Polio RdRp inh intensity	Mtb MbtI inh
CC1CN(C(=O)COC(=O)c2cccc(Cl)c2)CC(C)O1 (stereo not drawn)	x	100	102	-16
CCOC(=O)C1CCCN(Cc2ccc(Cl)cc2)C1 (stereo not drawn)	-23	101	103	-14
Cc1cc(C(=O)Nc2ccc(S(N)(=O)=O)cc2)no1	-3	101	98	12
O=C(CSc1ncccn1)NC1CC2CCC1C2 (stereo not drawn)	-19	105	103	14
COc1ccc(-c2nnc3s/c(=C\c4ccco4)c(=O)n23)cc1OC	-1	103	108	-6
N#Cc1ccc(/C=N/NC(=O)Cn2ccc(C(F)(F)F)n2)cc1	3	102	104	4
O=C(/C=C1/NCC2c3ccccc3CCN2C1=O)c1ccc(F)cc1 (stereo not drawn)	-23	113	132	x
Clc1ccc(-c2csc(N3CCN(c4ccccc4)CC3)n2)cc1	-22	104	103	14
O=C(O)/C=C/c1c(F)c(F)c(N2CCOCC2)c(F)c1F	-10	102	103	-3
Cn1c(-c2ccccc2)c[nH]c1=S	-23	110	110	x
COc1ccc(OCCC(=O)NC2=NCCS2)cc1	0	x	x	12
Nc1n[nH]c2c1C1(CCCC1)Cc1ccccc1-2	25	102	104	29
CN1CCN(c2nc(N3CCN(CCO)CC3)nc3ccccc23)CC1	-12	101	103	x
CCOc1ccc2nc(SCC(=O)Nc3ccccc3)[nH]c2c1	-17	96	94	29
CN(C=C1C(=O)NC(=O)NC1=O)Cc1ccc(Cl)c(Cl)c1	-83	121	131	27
CC(OC(=O)c1cccc(O)c1)C(=O)Nc1cccc(Cl)c1 (stereo not drawn)	6	101	108	4
COC(=O)c1ccc(N=c2sc(C(=O)OC)cc(=O)n2C)cc1	-3	99	104	1
O=S(=O)(NCCOc1cccc2cccnc12)c1ccc(F)cc1	0	101	100	-51
CC(=O)N[C@@H](Cc1c[nH]c2ccccc12)C(N)=O	6	98	101	-14
Cc1ccc(C(C)N2CCNCC2)cc1C (stereo not drawn)	8	100	105	x
NS(=O)(=O)C#Cc1ccccc1	-27	96	96	15
Cc1cc(N(C)CC(=O)Nc2ccc(OC(F)(F)F)cc2)n2ncnc2n1	-14	99	90	28
CON(C)S(=O)(=O)c1cc(C(=O)OCc2nc(-c3ccc(Cl)cc3)no2)ccc1Cl	5	109	104	6
COC(=O)c1ccccc1N/C=C/C(=O)c1ccc(Br)cc1	-6	100	109	x

Copied from the results shown for reference:
SMILES	Mtb MenB inh	Polio RdRp inh	Polio RdRp inh intensity	Mtb MbtI inh
CN1CCN(c2nc(N3CCN(CCO)CC3)nc3ccccc23)CC1	-12	101	103	x
CCOc1ccc2nc(SCC(=O)Nc3ccccc3)[nH]c2c1	-17	96	94	29
CN(C=C1C(=O)NC(=O)NC1=O)Cc1ccc(Cl)c(Cl)c1	-83	121	131	27
CC(OC(=O)c1cccc(O)c1)C(=O)Nc1cccc(Cl)c1 (stereo not drawn)	6	101	108	4

Following part.
SMILES	Mtb MenB inh	Polio RdRp inh	Polio RdRp inh intensity	Mtb MbtI inh
COC(=O)CN(C1CCCCC1)S(=O)(=O)c1ccccc1	-15	101	106	-15
C/C(=N\OCc1nc(-c2cccc(Cl)c2)no1)c1ccc(Cl)cc1	-16	101	95	4
Cc1csc2nc(CS(=O)(=O)c3ccc(Cl)cc3)cn12	x	103	107	-11
CCOC(=O)c1cc(-c2ccc(C)cc2)n(CCCC(=O)NCc2cccs2)c1	-16	101	100	12
COc1ccccc1/C=N/O	-8	103	110	60
O=C1CC(c2ccccc2O)=NN1	-80	107	109	-4
CC(C)(C)n1nnnc1C(c1cccnc1)N(Cc1ccccc1)Cc1ccco1 (stereo not drawn)	-30	105	103	-2
CCOc1ccc(C(=O)NCc2ccc3[nH]c4c(c3c2)CCCC4)cc1	-8	100	98	-4
O=c1[nH]c(=S)[nH]c2c1cnn2-c1ccc(F)cc1	-15	100	97	105
O=C(Cc1ccccc1)Nc1nonc1-c1ccccc1	-15	101	103	-9
N#Cc1ccc(CSc2nnc(C3CC3)n2C2CC2)cc1	15	97	100	-2
Cc1cc(C(F)F)n2ncc(C(=O)N3CCCCC3)c2n1	20	99	102	5
S=c1[nH]nc(Nc2ccccc2)n1-c1ccccc1	-21	97	103	58*
O=C(O)/C=C/c1ccc(Br)o1	x	97	110	26
O=C(NCc1cccc(C(F)(F)F)c1)c1ccc(=O)[nH]c1	-2	108	108	4
COc1ccccc1-c1cc(C(=O)O)c2ccccc2n1	-11	105	101	10
Fc1ccccc1Nc1ncnc2sc(-c3ccccc3)cc12	x	103	109	19
CCOC(=O)c1ccc2c(c1)N(CC#N)C(=O)C(C)(C)O2	-7	103	102	0
COc1ccccc1NC(=O)N(c1c(N)n(Cc2ccccc2)c(=O)[nH]c1=O)C1CCCC1	8	97	95	-19
COC(=O)Cn1c(=O)n(-c2ccccc2)c(=O)c2oc3ccccc3c21	-35	102	107	-16
CCCCn1c(N)c(C#N)c2nc3ccccc3nc21	x	98	100	71
CCOC(=O)NS(=O)(=O)c1ccc(C)cc1	-19	107	112	x
CC1=C(C(=O)OC2CCCC2)C(c2ccncc2)C2=C(CC(c3ccccc3)CC2=O)N1 (stereo not drawn)	-1	104	92	x
O=C(O)CN(c1ccccc1)c1ccccc1	-25	103	112	5
Nc1c(C(=O)O)sc2ncccc12	-5	110	111	5
CNC(=O)c1ccsc1NC(=O)c1cccc(S(C)(=O)=O)c1	-34	101	108	-1
CC(C)(C)OC(=O)COc1ccc(C#N)cc1	-24	105	100	-2
CCOCCCN=C1Sc2nc3cc4c(cc3cc2CN1CC1CCCO1)OCO4 (stereo not drawn)	-53	100	111	13
CCC1=NN(C(=O)COc2ccccc2C)C(O)(c2ccncc2)C1 (stereo not drawn)	0	100	100	-10
COc1cccc(NC(=O)C(c2ccccc2)N2CCN(S(=O)(=O)c3ccccc3)CC2)c1 (stereo not drawn)	-4	103	100	1
O=c1c(C(CN2CCOCC2)c2ccccc2)nc(-c2ccccc2)nn1CN1CCOCC1 (stereo not drawn)	-17	110	113	-4
CC(=O)Nc1nc2ccccc2n1Cc1ccc(C)cc1	25	x	x	6
CC(C)(C)NC(=O)CN1C(=O)CCC1=O	-3	101	104	-3
COc1ccc(CNc2cccc(C(=O)O)c2C)cc1OC	-13	105	102	-443
CCOC(=O)c1noc(C)c1-c1csc(COc2ccccc2)n1	-16	104	106	6
CSc1ccccc1N1C(=O)C=CC1=O	-5	102	104	101*
O=C1OCCC1SC1=N/C(=C/c2ccco2)C(=O)N1c1ccc(OC(F)F)cc1 (stereo not drawn)	-122	101	102	1
Cc1cc(C(=O)CSc2ccc(S(=O)(=O)N3CCN(Cc4ccccc4)CC3)cn2)c(C)n1C	-18	104	101	5
CCN1CCSc2ccc(C(=O)NCC3CCCO3)cc21 (stereo not drawn)	-4	100	103	119
CCOP(=S)(c1ccccc1)C(C#N)(CC)CC (stereo not drawn)	-20	103	105	-10
CCc1nnc(NC(=O)Nc2ccccc2C(F)(F)F)s1	-18	101	96	51
CCN(CC)C(=O)COc1ccc(/C(C)=N/NC(=O)Cc2ccccc2)cc1	-15	103	108	14
CC(C)COCC(CN(Cc1ccccc1)c1ccccc1)N1CCCC1 (stereo not drawn)	-4&6&2	98&99&99&100	101&100&101&103	6&-25&-19
O=C(Cc1ccccc1)c1ccccc1	x	102	105	-2
CCCCC(=O)Nc1ncc(Cc2ccccc2)s1	x	102	103	-9
Cc1ccc(NC(=O)CS(=O)Cc2nc(-c3ccc(C)cc3)oc2C)cc1 (stereo not drawn)	-12	105	107	-10
CCN(CC)S(=O)(=O)c1cccc(C(=O)NCCCN2CCOCC2)c1	-33	107	101	-11
C1CCN2C(C1)N1CCCCC1N1CCCCC21 (stereo not drawn)	3	103	103	-1

Ordered by number of heavy atoms (lowest first): some entries from above
SMILES	Mtb MenB inh	Polio RdRp inh	Polio RdRp inh intensity	Mtb MbtI inh
CC(OC(=O)c1cccc(O)c1)C(=O)Nc1cccc(Cl)c1 (stereo not drawn)	6	101	108	4
COC(=O)c1ccc(N=c2sc(C(=O)OC)cc(=O)n2C)cc1	-3	99	104	1
Cc1cc(N(C)CC(=O)Nc2ccc(OC(F)(F)F)cc2)n2ncnc2n1	-14	99	90	28

Next results follow.
SMILES	Mtb MenB inh	Polio RdRp inh	Polio RdRp inh intensity	Mtb MbtI inh
CCOC(=O)c1snc2c(=O)[nH]cnc12	-5	101	106	-11
CCOc1ccc(CN(C)C(=O)CNC(N)=O)cc1	-19	102	104	-1
CC1=CC(C)(C)N(C(=O)/C=C/c2ccccc2)c2ccc(C)cc21	-37	99	97	14
Cc1ccc(Cn2nc(C)c(C(=O)NCc3ccco3)c2Cl)cc1	9	98	104	0
CC(=O)NOC(=O)c1c(-c2c(Cl)cccc2Cl)noc1C	0	105	101	-13
O=C(CCN1N=C(c2ccccc2)CCC1=O)NC1CCCCC1	9	103	104	9
O=C(C1CCCC1)N1CCc2ccccc21	-23	101	89	x
O=C(NCc1ccccc1)c1cccnc1Nc1ccccc1	-3	98	103	4
COc1ccc(Nc2cc(C(=O)NCCCN3CCOCC3)c3ccccc3n2)cc1OC	-58	98	100	8
Nc1c(N(Cc2ccco2)C(=O)c2ccccc2)c(=O)[nH]c(=O)n1Cc1ccccc1	-21	101	102	2
N#Cc1cc2c(nc1SCc1ccccc1F)C1CCN2CC1	-27	102	105	8
O=c1[nH]ncc(N2CCCCC2)c1Cl	-22	97	94	-5
COc1ccc(CCNC(=O)CCn2c(SCC#N)nc3ccccc3c2=O)cc1OC	1	101	101	-10
CC(Cc1cccs1)NC(=O)Nc1ccccc1 (stereo not drawn)	-17	106	86	5
COc1cc(OC)cc(C(=O)Nc2cccc3nsnc23)c1	-61	104	106	-8
O=C(NC1CCCC1)c1ccc(COc2cc(Cl)ccc2Cl)o1	-6	107	105	x
CC(=O)Nc1cccc(N(C)S(C)(=O)=O)c1	-37	100	98	0
CCCC(=O)Nc1sc(C(=O)Nc2cccc(C)c2C)c(C)c1C#N	1	105	116	x
CCOC(=O)Nc1ccc(C)s1	-23	99	107	x
O=C(NC(=S)Nc1ccccc1Cl)c1ccc(Cl)cc1	-44	101	102	3
CC12CCC(CC(=O)c3ccccc3)(CC1)CC2	-26	103	99	-5
COc1ccc(NC(=O)CCn2c(=O)[nH]c3ccccc3c2=O)cc1OC	1	105	107	8
Cc1nc(C)c(C(=O)NC2CCCCCC2)s1	-23	101	103	-16
Cc1cc(OC(=O)c2ccco2)nc(SCc2c(Cl)cccc2Cl)n1	-21	115	122	-12
COC(=O)c1ccc(CNC(=O)c2ccc(Oc3ccccc3)cc2)cc1	x	101	97	-2
CCOc1ccc(S)cc1	6	103	106	34
N/C(=C\C(=O)c1ccc(Br)cc1)C(F)(F)F	-1	101	106	x
O=C(CSc1nc(C(F)(F)F)cc(=O)[nH]1)NCc1ccco1	3	99	98	3
C=CCC12CCC(=O)C=C1CCCC2=O (stereo not drawn)	-8	101	100	1
CCc1cc(C(=O)OC)c(NC(=O)CN2CCN(c3ccccc3)CC2)s1	-7	103	106	-3
COC(=O)CSc1nc(-c2ccccc2)cc(C(F)(F)F)n1	-11	102	101	-18
Cc1cccc(CCNC(=O)[C@H](Cc2ccccc2)N2Cc3ccccc3C2=O)c1	-13	101	102	-1
CCOC(=O)c1c(C)[nH]c(C(=O)CN2CCCCC2)c1C	-31	102	95	9
COc1ccccc1C(=O)CSc1cccc[n+]1[O-]	-5	105	108	-9
O=c1[nH]c(CN(CCO)Cc2nc3sccc3c(=O)[nH]2)nc2sccc12	-21	113	120	3
Cc1ccc(-c2nnc(CCC(=O)NCc3ccccc3CN3CCCC3)o2)cc1	0	105	111	-12

Retrieved one by one from the list above:
SMILES	Mtb MenB inh	Polio RdRp inh	Polio RdRp inh intensity	Mtb MbtI inh
O=C(CSc1nc(C(F)(F)F)cc(=O)[nH]1)NCc1ccco1	3	99	98	3
COc1ccccc1C(=O)CSc1cccc[n+]1[O-]	-5	105	108	-9
O=c1[nH]c(CN(CCO)Cc2nc3sccc3c(=O)[nH]2)nc2sccc12	-21	113	120	3

Next section
SMILES	Mtb MenB inh	Polio RdRp inh	Polio RdRp inh intensity	Mtb MbtI inh
COc1ccc(CCNC(=S)N2CCCC(C(F)(F)F)C2)cc1 (stereo not drawn)	-8	80*	87*	84*
O=C(CNC(c1ccccc1)c1ccc(Cl)cc1)N1CCNC1=O (stereo not drawn)	-53	98	89	7
Nc1sc(=S)nc2ccccc12	-99	97	101	52*
CCOc1ccccc1NC(=O)C1CCCN1C(=O)c1cccs1 (stereo not drawn)	-4	108	103	-4
O=C(Nc1ccc(N2CCCCC2)cc1)c1ccncc1	-10	102	105	-5
C[C@@H](C(=O)N1CCN(c2ccccc2)CC1)N1C(=O)C2CC=CCC2C1=O (stereo partly drawn)	-22	106	102	-3
Cc1ccc2[nH]c(=O)c(CN(C)S(C)(=O)=O)cc2c1	-7	105	102	-11
Cc1cccc(Nc2nc(-c3sc(C)nc3C)cs2)c1	-1	100	94	x
Cc1cc2nc(-c3ccc(N=Cc4cccc(C)c4O)cc3)oc2cc1C	-8	101	107	8
CCn1c(C(=O)N2CCC(C(=O)NCc3ccc(Cl)cc3)CC2)cc2occc21	4	105	100	-9
CN/N=C/c1ncc(C(F)(F)F)cc1Cl	-7	103	105	-2
CCOC(=O)c1sc2nc(C(C)Sc3nnc(C)s3)[nH]c(=O)c2c1C (stereo not drawn)	-14	109	111	-8

From PubChem BioAssay
